Screening results as filed in PubChem BioAssay.
RVFV N-RNA inh = inhibitors of Rift Valley Fever Virus nucleocapsid-RNA interaction. P21700. RVFV N-RNA binding, fluorescence polarization; active compounds read low. % bound, % (test concentration not listed). 0.1% of 20,000 active. AID 651828;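 active = between 0 and 58% in either replicate with normal brightness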;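 note: 100 nL library stock added to about 12 µL; 100% = protein and probe without compound and 0% = probe alone; numbers are from one replicate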
Target sequence (P21700 whole entry, looked up): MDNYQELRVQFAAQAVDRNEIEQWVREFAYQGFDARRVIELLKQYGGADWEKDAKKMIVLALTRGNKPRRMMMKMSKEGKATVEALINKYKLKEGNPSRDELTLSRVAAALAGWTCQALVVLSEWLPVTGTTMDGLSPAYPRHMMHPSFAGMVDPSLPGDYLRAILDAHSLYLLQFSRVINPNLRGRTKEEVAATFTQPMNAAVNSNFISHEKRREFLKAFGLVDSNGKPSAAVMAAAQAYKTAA
Numbers without * were called inactive; & = joins results of further samples. These rows are one share of the data, so the mix of outcomes need not match the whole.

`N=C(N)SCC1CN=C(N)S1` (centres undefined) gave RVFV N-RNA inh 89.3.
Screening Cc1cc(C)cc(N(C(=O)C(C)(C)C)C2C=CS(=O)(=O)C2)c1 (centres undefined) returned RVFV N-RNA inh 99.1.
Screening Cc1cc(C)c2c(c1)CC(C)(C)/C(=N/NC(=O)CC#N)C2=O returned RVFV N-RNA inh 99.5.
Screening CCn1cc(SCC(=O)Nc2nc3ccccc3s2)c2ccccc21 returned RVFV N-RNA inh 94.2.
Screening Cc1ccc(Sc2ccc(CO)o2)cc1 returned RVFV N-RNA inh 92.3.
For CCCCN1C(=O)/C(=C\c2ccc3c(c2)OCO3)SC1=S the results were RVFV N-RNA inh 96.7.
Screening Nc1nc(N)nc(N2C(=O)c3ccccc3C2=O)n1 returned RVFV N-RNA inh 96.3.
Screening COc1ccc(C(=O)Nc2ccccc2)cc1S(=O)(=O)N1CCN(c2ccccc2)CC1 returned RVFV N-RNA inh 100.1.
N#C/C(=C\Nc1ccc(OC(F)(F)F)cc1)C(=O)c1ccco1 was read as RVFV N-RNA inh 93.0.
Screening CCC(=O)Nc1c(C(=O)OC)sc2ccccc12 returned RVFV N-RNA inh 95.7.
For Cc1ccc(C2=[N+]([O-])C3(CCCCC/C3=N\NC(N)=S)N(O)C2(C)C)o1 (centres undefined) the results were RVFV N-RNA inh 86.2.
`CC(C)OC(=O)C(C)(C)Oc1ccc(C(=O)c2ccc(Cl)cc2)cc1` gave RVFV N-RNA inh 99.7&92.0&98.9.
CCCn1c(=O)c2[nH]c(C3CCCC3)nc2n(CCC)c1=O was read as RVFV N-RNA inh 93.3.
For CC1(C)CC(=O)c2sc(NC(=O)CN3CCN(C(=O)c4ccco4)CC3)nc2C1 the results were RVFV N-RNA inh 93.9.
`Cc1ccccc1CSc1[nH]c(=O)ncc1C` gave RVFV N-RNA inh 97.0.
For O=C(CNc1ccccc1)c1ccc(Cl)cc1 the results were RVFV N-RNA inh 100.4.
O=C(CN1C(=O)c2ccccc2C1=O)c1ccc(OC(F)F)cc1 was read as RVFV N-RNA inh 108.9.
Screening COc1ccc(NC(=O)c2ccccc2N(C)S(C)(=O)=O)cc1 returned RVFV N-RNA inh 99.3.
Screening CN(C)CCCN1c2ccccc2CCc2ccc(Cl)cc21 returned RVFV N-RNA inh 98.7&98.1.
For N#C/C(=C\Nc1cccc(Cl)c1)c1nc2ccccc2[nH]1 the results were RVFV N-RNA inh 76.1.
`COc1ccc(C(F)(F)F)cc1NC(C)=O` gave RVFV N-RNA inh 100.2.
`COc1ccccc1OCC(=O)Nc1oc(-c2ccccc2)c(-c2ccccc2)c1C#N` gave RVFV N-RNA inh 94.9.
For CCOC(=O)C1=C(C)NC2=C(C(=O)c3ccccc32)C1c1cccnc1 (centres undefined) the results were RVFV N-RNA inh 97.8.
Screening CCCNC(=O)C(Sc1ccccc1)c1ccccc1 (centres undefined) returned RVFV N-RNA inh 98.5.
`COc1ccc(-c2nnc3sc(CN4CCc5ccccc54)cn23)cc1` gave RVFV N-RNA inh 90.6.
Screening CSc1nc(N)nn1CCC#N returned RVFV N-RNA inh 94.1.
For COC(Cn1c(-c2ccc(Cl)cc2)n[nH]c1=S)OC the results were RVFV N-RNA inh 102.1.
For Cc1cc(N2CCCN(C)CC2)nc2cc(Cl)ccc12 the results were RVFV N-RNA inh 94.4.
For CC(C)CNc1oc(COc2ccccc2F)nc1C#N the results were RVFV N-RNA inh 85.3.
COc1ccccc1-n1c(CNC(=O)c2ccccc2)n[nH]c1=S was read as RVFV N-RNA inh 92.0.
`CC1C(=O)N2CCCc3cc(NC(=O)c4ccccc4)cc1c32` (centres undefined) gave RVFV N-RNA inh 95.1.
Cc1ccc2nc(C(F)(F)F)cc(N3CCN(CCS(=O)(=O)c4ccccc4)CC3)c2c1 was read as RVFV N-RNA inh 99.9.
CC1CN(C(=O)C(C)Oc2ccccc2)CC(C)O1 (centres undefined) was read as RVFV N-RNA inh 91.3.
CCS(=O)(=O)Nc1ccc(C(=O)NC(C)C)cc1 was read as RVFV N-RNA inh 92.5.
For O=C1C=CC(=O)C(Sc2nnnn2-c2ccccc2)=C1 the results were RVFV N-RNA inh 80.9.
Cc1ccc(/C=N/NC(=S)N2CCOCC2)cc1 was read as RVFV N-RNA inh 93.4.
N#CCCn1cc(/C=C/C(=O)NCc2ccccc2)c(-c2cc3ccccc3o2)n1 was read as RVFV N-RNA inh 92.9.
CC1CCCCN1C(=O)CNC(=O)Cc1ccc(Cl)cc1 (centres undefined) was read as RVFV N-RNA inh 99.1.
Screening NC(=O)c1ccc(C(N)=O)cc1 returned RVFV N-RNA inh 93.2.
Screening O=C(CN1CCCCC1)NC1CC2CCC1C2 (centres undefined) returned RVFV N-RNA inh 112.4.
Screening NNC(=O)Cn1nnc(N2CCOCC2)n1 returned RVFV N-RNA inh 94.6.
Cc1ccc(S(=O)(=O)NCl)cc1 was read as RVFV N-RNA inh 105.5.
Screening Cn1c(=O)[nH]c(=O)c2c1nc(Sc1ccccc1)n2Cc1ccccc1 returned RVFV N-RNA inh 96.2.
Screening COc1cc(CNCCO)c(Br)cc1OCC(N)=O returned RVFV N-RNA inh 100.9.
Screening Cc1ccccc1-n1c(N)cc(=O)[nH]c1=S returned RVFV N-RNA inh 81.0.
`CN(C)c1nc(C(N)=O)nc(N(C)C)n1` gave RVFV N-RNA inh 99.1.
CC(O)CP(c1ccccc1)c1ccccc1 (centres undefined) was read as RVFV N-RNA inh 102.6.
Screening COC(=O)c1sccc1NC(=O)Nc1cc(C)oc1C(F)(F)F returned RVFV N-RNA inh 93.5.
C/C(=N\N=C1\NC(=O)C(CC(=O)Nc2ccc(C)c(Cl)c2)S1)C(C)(C)C (centres undefined) was read as RVFV N-RNA inh 101.1.
For CC(C)(C)c1ccc(S(=O)(=O)/C=C/C#N)cc1 the results were RVFV N-RNA inh 92.6.
For O=C1Nc2ccc(I)cc2/C1=C/c1cc(Br)c(O)c(Br)c1 the results were RVFV N-RNA inh 111.5.
COCCNC(=O)c1ccc(C(=O)NCCOC)cc1 was read as RVFV N-RNA inh 97.1.
CC(=O)N/N=C/c1ccc(-c2ccc(F)c(Cl)c2)o1 was read as RVFV N-RNA inh 98.8.
For O=C1C(C=NC2CCCCCC2)=C(O)c2ccccc21 the results were RVFV N-RNA inh 104.3.
CCOC(=O)c1c(C)nc2c(c1-c1cccnc1)C(=O)c1ccccc1-2 was read as RVFV N-RNA inh 94.5.
`O=C(/C=C\c1ccco1)Nc1c2c(nn1-c1ccc(Cl)cc1)CSC2` gave RVFV N-RNA inh 91.1.
Screening O=C1c2ccccc2C2CC(c3ccc(Cl)cc3)=NN12 (centres undefined) returned RVFV N-RNA inh 99.0.
`CN(C)c1ccnc2sc(C(N)=O)c(N)c12` gave RVFV N-RNA inh 92.3.
c1ccc2sc(C3(N4CCCCC4)CCCCC3)cc2c1 was read as RVFV N-RNA inh 99.2.
For CSc1ccccc1NC(=O)c1cc(-c2ccccc2)on1 the results were RVFV N-RNA inh 93.1.

Gathered by group, the compounds so far containing fluorine.
N#C/C(=C\Nc1ccc(OC(F)(F)F)cc1)C(=O)c1ccco1 was read as RVFV N-RNA inh 93.0.
O=C(CN1C(=O)c2ccccc2C1=O)c1ccc(OC(F)F)cc1 was read as RVFV N-RNA inh 108.9.
`COc1ccc(C(F)(F)F)cc1NC(C)=O` gave RVFV N-RNA inh 100.2.
For CC(C)CNc1oc(COc2ccccc2F)nc1C#N the results were RVFV N-RNA inh 85.3.
Cc1ccc2nc(C(F)(F)F)cc(N3CCN(CCS(=O)(=O)c4ccccc4)CC3)c2c1 was read as RVFV N-RNA inh 99.9.
Screening COC(=O)c1sccc1NC(=O)Nc1cc(C)oc1C(F)(F)F returned RVFV N-RNA inh 93.5.
CC(=O)N/N=C/c1ccc(-c2ccc(F)c(Cl)c2)o1 was read as RVFV N-RNA inh 98.8.

The listing picks up; the six compounds before the break are reprinted first.
CCOC(=O)c1c(C)nc2c(c1-c1cccnc1)C(=O)c1ccccc1-2 was read as RVFV N-RNA inh 94.5.
`O=C(/C=C\c1ccco1)Nc1c2c(nn1-c1ccc(Cl)cc1)CSC2` gave RVFV N-RNA inh 91.1.
Screening O=C1c2ccccc2C2CC(c3ccc(Cl)cc3)=NN12 (centres undefined) returned RVFV N-RNA inh 99.0.
`CN(C)c1ccnc2sc(C(N)=O)c(N)c12` gave RVFV N-RNA inh 92.3.
c1ccc2sc(C3(N4CCCCC4)CCCCC3)cc2c1 was read as RVFV N-RNA inh 99.2.
For CSc1ccccc1NC(=O)c1cc(-c2ccccc2)on1 the results were RVFV N-RNA inh 93.1.
Screening FCCOc1ccc(OCCF)cc1 returned RVFV N-RNA inh 99.5.
For C=CCOc1cccc(NC(=O)Nc2ccccc2)c1 the results were RVFV N-RNA inh 100.0.
For COc1cccc(NC(=O)COc2coc(CSc3nncn3C)cc2=O)c1 the results were RVFV N-RNA inh 94.3.
`O=C(/C=C/c1ccc(O)cc1)c1ccc(O)cc1O` gave RVFV N-RNA inh 95.4.
`O=C(O)C1CSCN1` (centres undefined) gave RVFV N-RNA inh 103.7.
NC1=NCC2c3ccccc3Cc3ccccc3N12 (centres undefined) was read as RVFV N-RNA inh 91.6.
`O=C(Nc1ccccc1)c1ccc(=O)[nH]n1` gave RVFV N-RNA inh 91.3.
`COc1cccc2c1c(NC(=O)Nc1ccc(F)cc1F)nn2C` gave RVFV N-RNA inh 97.0.
CC1=NN(c2ccccc2)C(=O)C1/C=C1\C(=O)NC(=O)N(c2ccccc2)C1=O (centres undefined) was read as RVFV N-RNA inh 101.2.
`O=C1CC(c2ccc(S(=O)(=O)NCc3ccco3)cc2)CN1` (centres undefined) gave RVFV N-RNA inh 99.6.
Screening NS(=O)(=O)c1cccc(C(=O)Nc2ccc(F)cc2)c1 returned RVFV N-RNA inh 94.4.
Screening C=CCn1c(-c2ccncc2)n[nH]c1=S returned RVFV N-RNA inh 100.5.
For Nc1nc2c(cnn2CCc2ccccc2)c2nc(-c3ccco3)nn12 the results were RVFV N-RNA inh 100.6.
Screening CN(C)/C=C(\C#N)S(=O)(=O)c1ccccc1 returned RVFV N-RNA inh 76.7.
`O=C1OC(=O)C2C3CCC(O3)C12` (centres undefined) gave RVFV N-RNA inh 94.1.
O=C1NCC(O)=C1C=NC12CC3CC(CC(C3)C1)C2 was read as RVFV N-RNA inh 91.5.
CCOC(=O)N1CCN(C(=O)C(C)Oc2ccc(Br)cc2)CC1 (centres undefined) was read as RVFV N-RNA inh 96.0.
`CCOc1nc(-c2ccccc2)ccc1-c1noc(-c2ccccc2F)n1` gave RVFV N-RNA inh 99.0.
O=S1CCCCC1 was read as RVFV N-RNA inh 111.2.
Screening Cc1oc2c(F)c(F)c(F)c(F)c2c1C#N returned RVFV N-RNA inh 95.2.
`CCCS(=O)(=O)c1csc(C(=O)OC)c1NNS(=O)(=O)c1ccccc1C(F)(F)F` gave RVFV N-RNA inh 94.2.
Screening CC1(C)CC(=O)C2=C(C1)c1c(ccc3ccccc13)NC2c1ccc(Br)o1 (centres undefined) returned RVFV N-RNA inh 90.4.
`OCCN(CC(O)Cn1ccc2ccccc21)CC(O)Cn1ccc2ccccc21` (centres undefined) gave RVFV N-RNA inh 101.9.
For CC(C)(C)C(=O)O/N=C(\N)Cc1ccc(-c2csnn2)cc1 the results were RVFV N-RNA inh 98.3.
`CC(C)S(=O)(=O)c1cscc1N/C=C(/C#N)C(=O)c1cccs1` gave RVFV N-RNA inh 96.3.
For O=C(c1ccccc1)c1coc2ccccc2c1=O the results were RVFV N-RNA inh 93.9.
For c1cncc(-c2csc(Nc3nc4cc5c(cc4s3)OCO5)n2)c1 the results were RVFV N-RNA inh 93.8.
`CCC(C)N1C(=O)/C(=C\c2cnn(-c3ccccc3)c2)C(=O)NC1=S` (centres undefined) gave RVFV N-RNA inh 73.2.
`COC(=O)c1ccc(Oc2nc(C)cc(N)n2)cc1` gave RVFV N-RNA inh 92.9.
`CCSC1=NCCN1C(=O)c1cccc(C(F)(F)F)c1` gave RVFV N-RNA inh 98.8.
For CCOC(=O)c1nnn2c1nc(Sc1nnc(-c3ccncc3)o1)c1ccccc12 the results were RVFV N-RNA inh 105.6.
`CC(C)CC12CN3CCN(CC(C3)/C1=N/O)C2` gave RVFV N-RNA inh 100.6.
Cc1cc2c(OCC(CNC(C)(C)C)OC(=O)c3ccccc3)cccc2[nH]1 (centres undefined) was read as RVFV N-RNA inh 101.0.
`CN1C(=O)C(O)(C2OC(C)(C)CCC2=O)c2ccccc21` (centres undefined) gave RVFV N-RNA inh 95.5.
For CSc1cccc(NC(=S)N(C)C)c1 the results were RVFV N-RNA inh 92.8.
Screening CNC(=O)CSCc1cc(C)cc(C)c1 returned RVFV N-RNA inh 105.5.
`Cc1ncc2c(n1)-c1cc(F)ccc1SC2` gave RVFV N-RNA inh 93.5.
Fc1ccc(NC(=S)N2CCC3(CC2)OCCO3)c(F)c1 was read as RVFV N-RNA inh 98.6.
Screening CCOc1ccc(NC(=O)CN2C(=O)C(CC)SC(CC)C2=O)cc1 (centres undefined) returned RVFV N-RNA inh 95.2.
S=C(NCc1ccco1)N1CCC2(CC1)OCCO2 was read as RVFV N-RNA inh 80.7.
Screening N#Cc1ccc(CNC(=O)Nc2ccccc2)cc1 returned RVFV N-RNA inh 89.7.
For COC1(C2=NCCN2)COc2ccccc2O1 (centres undefined) the results were RVFV N-RNA inh 99.6.
`COC(=O)N(c1ccccc1)P1(=S)OCCO1` gave RVFV N-RNA inh 101.0.
`OCC1CC(O)C(O)C(Oc2ccc3ccccc3c2)O1` (centres undefined) gave RVFV N-RNA inh 98.0.
Screening Cc1ccc(C(=O)N(C)c2ccccc2)cc1Cl returned RVFV N-RNA inh 92.9.
For CN(C)NS(=O)(=O)C1CCS(=O)(=O)C1 (centres undefined) the results were RVFV N-RNA inh 93.0.
Screening CC[C@@H](C(N)=O)N1CCCC1=O returned RVFV N-RNA inh 100.4&93.6&92.2.
CCC(CC)C(=O)N1CCc2ccccc21 was read as RVFV N-RNA inh 94.5.
`C=CCNC(=O)/C=C/c1ccc(Cl)c(Cl)c1` gave RVFV N-RNA inh 96.6.
For CCOC(=O)C(O)(c1ccc2nc(N)sc2c1)C(F)(F)F (centres undefined) the results were RVFV N-RNA inh 103.2.
`O=c1[nH]c(O)c(C=NCc2cccs2)c(=O)[nH]1` gave RVFV N-RNA inh 92.5.
Screening Cc1ccc(O)c2c1NCCC2 returned RVFV N-RNA inh 88.5.
For O=C(Cc1ccccc1)N/N=C/c1ccccc1F the results were RVFV N-RNA inh 98.9.
